FGF22 binding: FGF22 (human) thermal shift binding | recombinant FGF22 thermal shift, SYPRO orange fluorescence; percent of sucrose octasulfate shift, DMSO zero | calls only at 9.99 µM | hit rate 1.5% among 340,000;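 active means melting point raised past a set limit in the mean and every replicate; three in four hits are not shown here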
Target sequence (Q9HCT0 whole entry, looked up): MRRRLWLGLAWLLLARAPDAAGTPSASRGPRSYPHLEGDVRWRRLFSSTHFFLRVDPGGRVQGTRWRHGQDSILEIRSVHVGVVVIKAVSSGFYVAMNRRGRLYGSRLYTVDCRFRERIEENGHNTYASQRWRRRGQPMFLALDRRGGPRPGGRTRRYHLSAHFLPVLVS
HNF4A DNA FP: change in binding of human HNF4 alpha to DNA. activity change, % at 10 µM. AID 1224865. hit rate 0.3% among 360,000. HNF4a-FITC DNA binding, fluorescence polarization, 1 h; in the data active means activity change above about 30%, passing the limit was not always enough;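 further: controls were the assay level and a saturating level of protein; the project sought stronger binding though the title names inhibitors; some compounds called inactive have numbers as strong as hits; positive values seem to mean higher polarization but the record does not say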
UCH37 inh: blocks the human deubiquitinase UCH37 | inhibition, % (test concentration not listed) | hit rate 0.33% among 330,000 | purified proteasome/UCH37, Ub-AMC cleavage fluorescence;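 active means mean of two replicates above 20%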;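 further: 0% = compound-free wells with enzyme and 100% = wells lacking proteasome; stock transfer was 100 nL into about 20 µL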
Target sequence (Q9Y5K5 whole entry, looked up): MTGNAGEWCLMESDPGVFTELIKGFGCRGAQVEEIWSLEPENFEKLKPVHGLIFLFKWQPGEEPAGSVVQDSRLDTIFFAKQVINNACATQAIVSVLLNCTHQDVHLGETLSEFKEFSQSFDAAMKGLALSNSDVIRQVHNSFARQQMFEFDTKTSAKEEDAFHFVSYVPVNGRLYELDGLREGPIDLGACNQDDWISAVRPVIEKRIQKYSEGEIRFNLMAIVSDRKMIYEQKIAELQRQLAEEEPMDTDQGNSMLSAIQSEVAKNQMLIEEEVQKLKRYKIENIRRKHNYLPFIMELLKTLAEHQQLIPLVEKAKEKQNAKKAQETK
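system = Proteasome-associated human UCH37 deubiquitinase | amount = 0.15 nM proteasome as dispensed | medium = pH 7.4 Tris-HCl (50 mM) with ovalbumin, ATP-MgCl2, DTT | incubation = 30 min preincubation with enzyme, 25 min cleavage at room temperature | detection = AMC fluorescence 355/460 nm | read-out basis = percent inhibition | controls = no-proteasome and no-compound wells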
ALR inh: blocks human ALR sulfhydryl oxidase activity. P55789. inhibition, % (test concentration not listed). AID 485317. hit rate 3.8% among 290,000. purified ALR, DTT oxidation, H2O2 HRP-luminol luminescence;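 active means mean and each replicate at 75% or more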;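 further: stock transfer was 7.5 nL into about 7.5 µL; 0% = neutral wells and 100% = wells with inactivated enzyme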
Ecoli growth: inhibitors of Escherichia coli growth; OD600, 23 h; active compounds read low; OD600 absorbance (test concentration not listed); hit rate 0.21% among 330,000; AID 1053175;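 active means OD600 absorbance below the run mean of sample wells minus 3.6 SD, in any replicate, cut at about 0.56 in these data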;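 further: stock transfer was 300 nL into about 60 µL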
Ecoli rRNA inh: selective bacterial rRNA inhibition in E. coli; GFP signal change (wild-type ribosome), % (concentration not given with the values); E. coli WT GFP vs humanized-ribosome RFP mutants, fluorescence, 24 h; active compounds read low; DMSO median 0, no signal -100; hit rate 1.6% among 350,000; AID 720706;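 active means significant combined selectivity score with lowered wild-type GFP, culture density cut under 30%, mutant RFP and density less affected; inactive means any of these conditions unmet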; further: one replicate is shown; some compounds called inactive have numbers as strong as hits
B2AR ag: human beta-2 adrenergic receptor agonism by FAP; Am2.2-beta2AR cells, FAP receptor internalization, flow cytometry; reference of the scale not given here; hit rate 0.43% among 340,000; P07550; response, % (concentration not given with the values);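 active means response above a set limit, near 3 SD of response in nonfluorescent compounds, cut at about 42% in these data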;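 further: stock transfer was 100 nL into about 11 µL; a reference agonist was the positive control; negative values mostly stem from fluorescent compounds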
Target sequence (P07550 whole entry, looked up): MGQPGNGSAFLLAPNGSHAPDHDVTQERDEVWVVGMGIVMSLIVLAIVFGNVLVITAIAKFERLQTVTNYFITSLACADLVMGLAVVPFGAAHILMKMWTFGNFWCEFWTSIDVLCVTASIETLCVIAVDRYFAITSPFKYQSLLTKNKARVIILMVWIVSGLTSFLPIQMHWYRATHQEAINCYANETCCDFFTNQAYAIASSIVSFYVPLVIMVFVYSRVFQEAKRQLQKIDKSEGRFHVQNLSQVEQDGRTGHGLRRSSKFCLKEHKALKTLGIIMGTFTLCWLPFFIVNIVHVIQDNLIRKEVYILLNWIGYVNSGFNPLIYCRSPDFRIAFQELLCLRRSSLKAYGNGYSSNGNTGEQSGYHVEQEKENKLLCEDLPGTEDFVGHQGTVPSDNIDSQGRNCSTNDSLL
Ecoli rRNA inh OD600: also measured in Ecoli rRNA inh; calls as there; OD600 change, %; measured here: OD600 growth;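 optical density of the mix in the first replicate; 0 = DMSO median and -100 = no signal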
Ecoli rRNA inh RFP: second read-out of Ecoli rRNA inh, no call of its own (marks repeat the call); RFP signal change, %; measured here: RFP humanized mutant strains;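 first replicate; 0 = DMSO median and -100 = no signal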
The depositor's hits bear a star; i = inactive; . = not tested or not shown. Not all compounds are listed, so the mix of outcomes need not match the whole.

Results follow in this order: FGF22 binding	HNF4A DNA FP	UCH37 inh	ALR inh	Ecoli growth	Ecoli rRNA inh	Ecoli rRNA inh OD600	Ecoli rRNA inh RFP	B2AR ag
1) CCSc1nnc(-c2ccc(S(=O)(=O)N3CCOCC3)cc2)n1C
 : i	0.2	3.5	-8	0.63	23	22	6.0	2
2) COc1ccc2[nH]c3c(c2c1)CCN1C(=O)C(CC(=O)NCCN2CCOCC2)C[C@H](C(=O)N2CCOCC2)[C@@]31C (some centres not stated)
 : i	0.7	-1.8	.	0.72	5	4	-0.3	-6
3) COc1cccc(Oc2nc(-c3ccccc3O)nc3ccccc23)c1
 : i	-2.6	5.7	0	0.67	3	6	-1.0	-35
4) COc1ccc(-c2cc(C(=O)N3CCN(S(=O)(=O)c4ccc(C)cc4)CC3)[nH]n2)cc1
 : i	5.4	-0.2	-4	0.7	1	7	1.2	7
5) O=C(Cn1cc(S(=O)(=O)Cc2ccccc2)c2ccccc21)N1CCOCC1
 : i	1.7	0.9	-3	0.68	24	19	0.5	3
6) CCN1C(=O)N[C@H](c2ccc(Br)cc2)C(C(=O)OC)=C1C
 : i	0.0	-3.5	-4	.	1	8	-3.2	0
7) CSc1ncccc1C(=O)N(C)CC(=O)Nc1cccc(F)c1
 : i	-0.4	0.6	2	0.67	23	16	3.6	3
8) COc1cc(C)ccc1OCCOCCOc1cccc2ccc(C)nc12
 : i	2.2	0.8	-9	0.7	-32*	-6.3*	3.5*	3
9) O=C(Nc1ccc(-n2cc(Cl)cn2)cc1)c1ccncc1
 : i	2.5	-2.1	-3	0.72	2	1	8.2	-8
10) Cn1c(C(=O)NN)cc2cc(Oc3ccccc3)ccc21
 : i	0.2	2.2	45	0.67	3	11	-7.3	-5
11) Cc1cc(C)c2nc(SCC(=O)N3CC(=O)Nc4ccccc43)c(C#N)cc2c1
 : .	7.5	-7.2	3	0.7	.	.	.	4
12) Cc1ccc(C)c2sc(NC(=O)c3ccc(N4CCCCC4)c([N+](=O)[O-])c3)nc12
 : i	-2.2	7.9	-7	0.77	3	5	-3.9	7
13) COc1ccccc1CNC(=O)C(C)n1cccc1C(=O)c1ccccc1 (configuration not stated)
 : i	1.9	2.9	2	0.68	-9	-6	-2.6	-2
14) Cc1cccc(C(C)C)c1NC(=O)COC(=O)c1cccc(S(=O)(=O)N2CCc3ccccc3C2)c1
 : .	4.5	2.7	-9	0.68	.	.	.	-6
15) COc1ccc(C)cc1N(CC(=O)N1CCCCCC1)S(=O)(=O)c1ccccc1
 : i	-1.7	4.9	-16	0.71	1	-15	1.1	3
16) COc1ccc(/C=C\c2nc(=O)c3ccccc3o2)cc1
 : i	-0.6	.	.	.	-47	-54	-1.2	22
17) COc1ccc(CC(=O)Nc2ccc(C(=O)NCC(C)C)cc2)cc1
 : .	-0.9	-0.1	10	0.64	10	10	-2.5	-12
18) CCc1noc(C)c1C(=O)Nc1nnc(C2CCCCC2)s1
 : .	.	5.0	3	0.66	.	.	.	.
19) O=C(Nc1ccc([N+](=O)[O-])cc1)N1CCCCCC1
 : i	-0.2	5.2	-8	0.64	0	0	0.4	-1
20) Cc1cc(C)c(C(=O)OCC(=O)NCc2cccs2)c(C)c1
 : i	0.2	3.0	-21	0.7	-18	-21	-1.0	0

Another view of 2 compounds above:
12) Cc1ccc(C)c2sc(NC(=O)c3ccc(N4CCCCC4)c([N+](=O)[O-])c3)nc12
13) COc1ccccc1CNC(=O)C(C)n1cccc1C(=O)c1ccccc1 (configuration not stated)
entry no.	12	13
FGF22 binding	i	i
HNF4A DNA FP	-2.2	1.9
UCH37 inh	7.9	2.9
ALR inh	-7	2
Ecoli growth	0.77	0.68
Ecoli rRNA inh	3	-9
Ecoli rRNA inh OD600	5	-6
Ecoli rRNA inh RFP	-3.9	-2.6
B2AR ag	7	-2

3 compounds from above, arranged by their value in Ecoli growth, highest first.
entry | smiles | Ecoli growth
20 | Cc1cc(C)c(C(=O)OCC(=O)NCc2cccs2)c(C)c1 | 0.7
19 | O=C(Nc1ccc([N+](=O)[O-])cc1)N1CCCCCC1 | 0.64
1 | CCSc1nnc(-c2ccc(S(=O)(=O)N3CCOCC3)cc2)n1C | 0.63

Carrying on.
Results follow in this order: FGF22 binding	HNF4A DNA FP	UCH37 inh	ALR inh	Ecoli growth	Ecoli rRNA inh	Ecoli rRNA inh OD600	Ecoli rRNA inh RFP	B2AR ag
21) CC(=O)c1cccc(Nc2cc(C)nc3ccc(C)cc23)c1
 : i	4.1	7.1	2	0.64	6	3	1.2	0
22) CC(Oc1ccc(Cl)cc1C(N)=O)C(=O)N1CCc2ccccc21 (configuration not stated)
 : i	3.8	3.2	5	0.7	10	0	1.2	-1
23) Clc1ccc(-c2ccc(C=Nc3ccc(N4CCOCC4)cc3)o2)c(Cl)c1
 : i	11	3.4	14	0.68	8	8	2.2	23
24) COCC1CCN(C(=O)c2cc(COc3ccc(F)cc3Cl)on2)C1 (configuration not stated)
 : i	4.9	.	.	.	-6	-7	-6.7	.
25) COc1cc(OC)cc(C(=O)NCC(=O)NCCN2C(=O)S/C(=C\c3ccc4c(c3)OCO4)C2=O)c1
 : i	0.5	2.0	.	0.67	1	6	4.3	4
26) CCCCOc1ccc(CONS(=O)(=O)c2ccc(NC(C)=O)cc2)cc1Cl
 : i	4.3	5.6	3	0.71	-18	-32	9.7	-6
27) Cc1ccc(S(=O)(=O)Nc2ccc(C(=O)NC3CC3)cc2)cc1
 : i	2.1	4.2	-19	0.69	2	6	0.1	-13
28) COc1ccc(NCc2ccc3c(c2)OCO3)cc1Cl
 : i	-3.3	-1.9	97*	0.7	8	16	0.3	4
29) Cc1cc(C)cc(Oc2coc3c(CN(C)C)c(O)ccc3c2=O)c1
 : i	-4.3	i	-2	0.67	9	8	4.0	4
30) CC(=O)c1c(C(C)=O)c(C)n(C(c2ccccc2)c2ccccc2)c1C
 : i	-5.3	6.3	-12	0.7	9	9	-3.4	-2
31) CCOC(=O)[C@]12CCC=C1N(Cc1ccco1)C(=O)[C@H](CC(=O)N1CCN(C(=O)C3CC3)CC1)C2
 : i	-0.3	.	.	.	5	19	-2.8	.
32) CCOC(=O)C1(Cc2cccc(F)c2)CCN(C(=O)c2ccoc2C)CC1
 : i	-2.7	-1.1	6	0.69	-30	-41	-5.3	1
33) N#Cc1c(NC(=O)COC(=O)c2nccnc2N)sc2c1CCCC2
 : i	2.1	-26	7	0.72	1	-2	2.0	2
34) CCOC(=O)/C(C(=Nc1ccccc1)Nc1ccccc1)=C(\C)O
 : i	0.3	0.9	1	0.64	10	4	1.1	-3
35) Cc1ccc2c(c1)CCCN2C(=O)c1ccoc1C
 : .	5.3	4.3	42	0.68	.	.	.	-1
36) CN(C(=O)CSc1nc2sc3c(c2c(=O)n1C)CCC3)C1CCS(=O)(=O)C1 (configuration not stated)
 : i	-0.2	4.3	-19	0.66	4	8	-1.4	1
37) COc1ccc(NC(=O)CS(=O)c2ccccc2Cl)cc1 (configuration not stated)
 : i	-3.3	2.9	1	0.73	6	-3	-0.7	-3
38) O=C(COC(=O)c1cnccn1)NC1CCCc2ccccc21 (configuration not stated)
 : i	0.6	4.2	.	0.65	.	.	.	-2
39) COc1ccc(N(C(=O)c2snc(C(N)=O)c2N)C(C(=O)NC2CCCC2)c2ccco2)cc1 (configuration not stated)
 : i	0.9	-5.5	-3	0.68	1	3	-0.2	-6
40) Cc1cc(NC(=O)CSc2nc3c(c(=O)n2-c2ccc(Cl)cc2)SCC3)no1
 : .	1.3	2.2	-1	0.71	.	.	.	-12

Profiles as entered above:
Results for CN(C(=O)CSc1nc2sc3c(c2c(=O)n1C)CCC3)C1CCS(=O)(=O)C1 (configuration not stated) = FGF22 binding = i; HNF4A DNA FP = -0.2; UCH37 inh = 4.3; ALR inh = -19; Ecoli growth = 0.66; Ecoli rRNA inh = 4; Ecoli rRNA inh OD600 = 8; Ecoli rRNA inh RFP = -1.4; B2AR ag = 1
Results for CC(=O)c1cccc(Nc2cc(C)nc3ccc(C)cc23)c1 = FGF22 binding = i; HNF4A DNA FP = 4.1; UCH37 inh = 7.1; ALR inh = 2; Ecoli growth = 0.64; Ecoli rRNA inh = 6; Ecoli rRNA inh OD600 = 3; Ecoli rRNA inh RFP = 1.2; B2AR ag = 0

The listing continues.
Results follow in this order: FGF22 binding	HNF4A DNA FP	UCH37 inh	ALR inh	Ecoli growth	Ecoli rRNA inh	Ecoli rRNA inh OD600	Ecoli rRNA inh RFP	B2AR ag
41) Cc1nn(CC(=O)Nc2ccc(C#N)cc2)c(C)c1[N+](=O)[O-]
 : i	3.0	2.7	3	0.67	-4	9	-2.4	10
42) COc1ccc(C(=O)NC(=S)Nc2ccc(N3CCN(C(C)=O)CC3)cc2)cc1[N+](=O)[O-]
 : i	1.8	5.5	61	0.66	-2	-5	-1.2	6
43) CC(C)Sc1nc2c(cnn2-c2ccc(F)cc2)c(=O)[nH]1
 : i	1.2	2.0	0	0.71	0	6	-3.7	2
44) N#CCSC1=Nc2ccccc2C2=NC(CCC(=O)N3CCN(c4ccccc4)CC3)C(=O)N12 (configuration not stated)
 : .	0.3	-0.3	12	0.69	.	.	.	-16
45) Cc1ccc(N2CC(C(=O)Oc3cccc(N4C(=O)CCC4=O)c3)CC2=O)cc1 (configuration not stated)
 : .	0.5	0.0	2	0.69	.	.	.	1
46) Cc1ccc(C(=O)NCCNS(=O)(=O)c2ccccc2)cc1
 : .	0.2	0.2	-1	0.66	.	.	.	6
47) CC(=O)N1CCc2cc(S(=O)(=O)NCCC(=O)NC3CCN(Cc4ccccc4)CC3)ccc21
 : .	-1.1	0.4	-1	0.76	.	.	.	17
48) COc1ccc(CNC(=S)Nc2ccc(S(N)(=O)=O)cc2)cc1
 : i	3.0	2.7	-3	0.64	8	-2	3.7	2
49) CC(C)CCN1CCN(Cc2cccc3cccnc23)CC1CCO (configuration not stated)
 : i	-7.8	5.7	-3	0.63	11	11	-0.2	22
50) CC(=O)c1cccc(NC(=O)c2ccccc2-c2ccccc2C(=O)O)c1
 : i	-3.8	-0.6	12	0.67	-2	10	-0.1	0
51) CCOc1ccc(C(C)=O)cc1N1C(=O)C2C(C1=O)C1C=CC2C12CC2 (configuration not stated)
 : i	0.1	-0.3	4	0.7	24	8	3.6	0
52) COc1cc(/C=c2/sc3nc(-c4ccccc4)c(-c4ccccc4)n3c2=O)cc(OC)c1OC
 : .	-3.7	.	0	.	.	.	.	11
53) CCOC(=O)c1cc(-c2csc(Nc3ccccc3Cl)n2)on1
 : i	2.9	4.6	-3	0.66	-20	-17	-0.1	-3

Assay outcomes deposited in PubChem by several laboratories.
